Screening results: PubChem, several laboratories
CSC inhib: cancer stem cell viability inhibitors, primary screen, luminescence; cancer stem cell-like cells viability; inhibition, % at 7.5 µM; actives 1.1% (n = 300,000); AID 2717, 2010;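 active = mean at 75% or more and at least half the replicates too; inconclusive = mean and replicates disagree; tested in HMLE shEcad cells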;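 also: 0% = median of negative and 100% = median of positive control wells; the first replicate is given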
Yeast UUG start: modulators of yeast start codon fidelity, primary screen, whole organism, S. cerevisiae, single point, plate reader | S. cerevisiae UUG-firefly luciferase reporter, luminescence/redox ratio | activity score, % at 18.7 µM | actives 0.13% (n = 350,000) | AID 602363, 2012;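 active = replicate mean at a twofold rise or more, about +100% in these data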;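 also: firefly luciferase made from a UUG start codon reports start codon fidelity; reporter light over untreated wells divided by growth signal over untreated wells; some hits fall short of that in this replicate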
Rce1 inhib: yeast Rce1p protease inhibitors, primary screen, biochemical, fluorescence, cell-free homogeneous. CAAX prenyl protease 2 (Saccharomyces cerevisiae (strain ATCC 204508 / S288c)), Q03530. yeast membranes, quenched prenylated peptide cleavage fluorescence. calls only. actives 0.27% (n = 290,000);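 active = fall in fluorescence gain of 50% or more versus controls, with final raw signal at or below 3038400; inconclusive = same 50% fall but final raw signal above 3038400; inactive = fall in fluorescence gain under 50%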;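 also: plate controls were neutral control wells for no effect and wells lacking membranes for full effect; tested at 10 µM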
PABP FP inh: PABP poly(A) RNA binding inhibitors, primary screen, biochemical, fluorescence polarization, uHTS. actives 1% (n = 290,000). inhibition, % at 35 µM. AID 2014, 2009. Polyadenylate-binding protein 1 (Homo sapiens), P11940;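 active = 50% or more with normal probe brightness, or confirmed in later tests; inconclusive = above 50% with abnormal brightness, or retests that disagree; inactive = below 50% or failed in later tests; about a fifth of its hits are not listed in these tables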;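 also: calls also rest on retests at 20 µM and on dose response follow-up; controls were probe without protein and protein plus probe with vehicle; some compounds called inactive have numbers as strong as hits; many hits fall short of the cut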
Target sequence (P11940 whole entry, looked up): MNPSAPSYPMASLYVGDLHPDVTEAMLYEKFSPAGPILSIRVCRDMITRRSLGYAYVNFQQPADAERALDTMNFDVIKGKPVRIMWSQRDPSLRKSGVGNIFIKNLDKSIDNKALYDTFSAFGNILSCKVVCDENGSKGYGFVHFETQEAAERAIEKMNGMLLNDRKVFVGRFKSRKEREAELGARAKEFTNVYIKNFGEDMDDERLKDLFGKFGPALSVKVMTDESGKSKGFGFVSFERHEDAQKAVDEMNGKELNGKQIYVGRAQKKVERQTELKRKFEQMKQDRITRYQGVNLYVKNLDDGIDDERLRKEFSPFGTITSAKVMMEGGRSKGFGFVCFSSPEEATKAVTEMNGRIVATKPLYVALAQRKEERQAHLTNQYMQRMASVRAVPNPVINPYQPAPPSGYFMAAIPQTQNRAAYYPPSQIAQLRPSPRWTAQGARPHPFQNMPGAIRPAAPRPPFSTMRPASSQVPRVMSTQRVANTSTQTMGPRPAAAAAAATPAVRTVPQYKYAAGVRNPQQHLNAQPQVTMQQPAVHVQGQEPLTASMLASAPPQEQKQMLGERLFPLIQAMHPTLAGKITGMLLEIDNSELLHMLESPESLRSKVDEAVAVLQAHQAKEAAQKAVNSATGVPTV
HIV Env fusion: inhibitors of HIV-1 Env-driven cell-cell fusion, primary screen, HeLa-JRFL effector, CEM21 target cells, luciferase. AID 651610, 2012. actives 1.1% (n = 360,000). inhibition, % at 12.3 µM;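 active = mean replicate inhibition score of at least 50 and every replicate individually at or above 50; inconclusive = only one of the two criteria met; inactive = mean below 50 and not all replicates reaching 50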;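 also: 0% = plate neutral controls and 100% = maraviroc near 300 nM; one replicate is shown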
MT1-MMP act inh: blockers of MT1-MMP proenzyme processing, primary screen, HT1080 RFP-PRO-GFP cells, GFP/RFP fluorescence | AID 651647, 2012 | GFP/RFP ratio change, % at 20 µM | actives 0.061% (n = 360,000) | Matrix metalloproteinase-14 (Homo sapiens), P50281 | GFP/RFP ratio fluorescence, overnight; percent of plate control window, DMSO zero;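 active = GFP/RFP ratio change of at least 30% with cell ATP level not reduced by more than half and red fluorescence within 50% of control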; also: strong numbers were not always called active
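Read-out: GFP/RFP fluorescence ratio; Test system: RFP-PRO-GFP reporter HT1080 cells; Compound dosing: single-point 20 µM compound, 1% DMSO; Times: overnight compound exposure at 37 °C.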
eIF4H FP inh: human eIF4H binding inhibitors, primary screen, translation initiation inhibitor project, biochemical, uHTS, fluorescence polarization. Eukaryotic translation initiation factor 4H (Homo sapiens), Q15056. eIF4H fluorescence polarization binding assay. inhibition, % at 35 µM. actives 0.94% (n = 290,000). AID 2012, 2009;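 active = 50% or more with normal probe brightness, or confirmed in later tests; inconclusive = above 50% with abnormal brightness, or retests that disagree; inactive = below 50% or failed in later tests; about a fifth of its hits are not listed in these tables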;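 also: calls also rest on retests at 20 µM and on dose response follow-up; 0% = protein and probe with vehicle and 100% = probe without protein; strong numbers were not always called active; many hits fall short of the cut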
eIF4H FP inh retest: also measured in eIF4H FP inh; calls as there; inhibition, %; compound at 20 µM; confirmation average;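 mean of two retest wells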
PABP FP inh retest: further read-out of PABP FP inh, marked with its call; inhibition, %; compound at 20 µM; confirmation repeats;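 mean of two retest wells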
MT1-MMP act inh RFP: further read-out of MT1-MMP act inh, marked with its call; RFP signal change, %; measured here: RFP expression control read;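 0 = vehicle wells; hits needed this value within 50% of zero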
The depositor's hits bear a star.

Screening CCN(CC)C(=O)C1=C(C)N(Cc2ccccc2)C(=O)C(CC(=O)NCCCCc2ccccc2)C1 (configuration not stated) returned Yeast UUG start -13, HIV Env fusion inconclusive, MT1-MMP act inh 6 and MT1-MMP act inh RFP 4.
Screening CCOc1ccc(CCNc2nc3ccccc3n3cnnc23)cc1OCC returned Yeast UUG start -15, Rce1 inhib inactive, PABP FP inh -6, HIV Env fusion 34, MT1-MMP act inh 2, eIF4H FP inh -17 and MT1-MMP act inh RFP 0.
Cc1c(NC(=O)CN(c2ccc(F)cc2)S(=O)(=O)c2ccccc2)c(=O)n(-c2ccccc2)n1C was read as CSC inhib 8, Yeast UUG start -8, Rce1 inhib inactive, PABP FP inh 2, HIV Env fusion -8, MT1-MMP act inh -2, eIF4H FP inh 59, eIF4H FP inh retest -2, PABP FP inh retest 11 and MT1-MMP act inh RFP -3.
For COCCNC(=O)C(c1c[nH]c2ccccc12)N(C(=O)c1snc(C(N)=O)c1N)c1cccc(OC)c1 (configuration not stated) the results were CSC inhib -13, Rce1 inhib inactive, PABP FP inh 3, HIV Env fusion -4, MT1-MMP act inh -2, eIF4H FP inh -3 and MT1-MMP act inh RFP 2.
CCN(CC)S(=O)(=O)c1ccc(C(=O)NCC2CCCCC2)cc1 was read as CSC inhib -7, Yeast UUG start -7, PABP FP inh -3, HIV Env fusion -3, MT1-MMP act inh 0, eIF4H FP inh 1 and MT1-MMP act inh RFP -2.
For CC(C)CCn1nc(C(=O)OC(C)C(=O)NC(N)=O)c2ccccc2c1=O (configuration not stated) the results were CSC inhib 13, Yeast UUG start -3, Rce1 inhib inactive, PABP FP inh 9, HIV Env fusion -123, MT1-MMP act inh 4, eIF4H FP inh -2 and MT1-MMP act inh RFP 5.
Screening O=C(O)CCC(=O)Nc1cccc(-c2csc(-c3ccccc3)n2)c1 returned CSC inhib -14, Rce1 inhib inactive, PABP FP inh -7, HIV Env fusion 24, MT1-MMP act inh 1, eIF4H FP inh 3 and MT1-MMP act inh RFP 1.
Screening CC(=O)c1c[nH]c(C(=O)Nc2ccc(N3CCCCCC3)cc2)c1 returned CSC inhib 14, Yeast UUG start -1, MT1-MMP act inh 8 and MT1-MMP act inh RFP 2.
For C=C1c2ccccc2NC(=O)N1c1ccc(C)cc1 the results were CSC inhib -6, Yeast UUG start -20, Rce1 inhib inactive, PABP FP inh -1, MT1-MMP act inh 4, eIF4H FP inh 2 and MT1-MMP act inh RFP 3.
`O=C(CNC(=O)c1cccs1)NCC(=O)OCc1ccccc1Cl` gave Yeast UUG start -15, Rce1 inhib inactive, PABP FP inh 5, MT1-MMP act inh 1, eIF4H FP inh 1 and MT1-MMP act inh RFP 1.
Cc1ccc(-c2csc3n[nH]c(=S)n23)cc1 was read as CSC inhib -10, Yeast UUG start -16, Rce1 inhib inactive, PABP FP inh -4, MT1-MMP act inh 3, eIF4H FP inh -3 and MT1-MMP act inh RFP 5.
For CC(CN1CCOCC1)OC(=O)Cc1ccc(Cl)cc1 (configuration not stated) the results were CSC inhib -33, Rce1 inhib inactive, PABP FP inh 4, HIV Env fusion 4, MT1-MMP act inh -2, eIF4H FP inh 18 and MT1-MMP act inh RFP 5.
For Cc1cc(C(=O)N/N=C/c2sc(N3CCOCC3)nc2-c2ccccc2)c(C)o1 the results were CSC inhib -16, Rce1 inhib inactive, PABP FP inh -1, HIV Env fusion 14, MT1-MMP act inh -7, eIF4H FP inh 9 and MT1-MMP act inh RFP 2.
Screening C=CCSc1nc2c(c(=O)[nH]c(=O)n2C)n1Cc1ccccc1 returned CSC inhib 1, Yeast UUG start -18, Rce1 inhib inactive, PABP FP inh -6, HIV Env fusion 9, MT1-MMP act inh 0, eIF4H FP inh -6 and MT1-MMP act inh RFP -6.
Screening Cn1ccs/c1=N\S(=O)(=O)c1ccc(F)cc1 returned CSC inhib -6, Yeast UUG start -22, Rce1 inhib inactive, PABP FP inh 14, HIV Env fusion -60, MT1-MMP act inh -1, eIF4H FP inh -4 and MT1-MMP act inh RFP -1.
Screening OCc1ccnc2oc3ccccc3c12 returned CSC inhib -4, Rce1 inhib inactive, HIV Env fusion -6, MT1-MMP act inh -5 and MT1-MMP act inh RFP -4.
Screening COc1ccc(N2CCN(CCNC(=O)c3ccc4c(c3)[nH]c(=S)n3c5ccccc5nc43)CC2)cc1 returned CSC inhib 30, Yeast UUG start -20, Rce1 inhib inactive, PABP FP inh 4, HIV Env fusion -8, MT1-MMP act inh -2, eIF4H FP inh 5 and MT1-MMP act inh RFP 0.
`CC(C)c1c(C(=O)N/N=C/c2ccc(-c3ccccc3)cc2)nnn1-c1nonc1N` gave CSC inhib -9, Yeast UUG start -7, Rce1 inhib inactive, PABP FP inh -3, HIV Env fusion 4, MT1-MMP act inh -1, eIF4H FP inh -7 and MT1-MMP act inh RFP 0.
`COc1ccc(OC)c(NC(=O)COC(=O)C2CCC2)c1` gave CSC inhib -16, Yeast UUG start -8, HIV Env fusion 1, MT1-MMP act inh 1 and MT1-MMP act inh RFP 1.
For O=C(COC(=O)CCNS(=O)(=O)c1ccc(Cl)cc1)Nc1ccccc1OC(F)F the results were Yeast UUG start -1, HIV Env fusion -9, MT1-MMP act inh -2 and MT1-MMP act inh RFP 0.
`CCOC(=O)c1sc2nc(CC(=O)OC)nc(NCc3ccc(Cl)cc3)c2c1C` gave CSC inhib -5, Yeast UUG start -37, Rce1 inhib inactive, PABP FP inh 6, MT1-MMP act inh 1, eIF4H FP inh 3 and MT1-MMP act inh RFP -17.
`O=C(Cn1cnc([N+](=O)[O-])n1)NCCc1ccccc1` gave CSC inhib 2, PABP FP inh 2, HIV Env fusion -5, MT1-MMP act inh 0, eIF4H FP inh -6 and MT1-MMP act inh RFP -3.
Screening CS(=O)(=O)c1ccc2nc(NC(=O)C3CC(=O)N(c4ccc(F)cc4)C3)sc2c1 (configuration not stated) returned CSC inhib 7, Yeast UUG start -12, Rce1 inhib inactive, PABP FP inh -10, HIV Env fusion -5, MT1-MMP act inh -13, eIF4H FP inh 2 and MT1-MMP act inh RFP -4.
`O=C(Cn1cnnn1)Nc1cccc([N+](=O)[O-])c1` gave CSC inhib -15, Rce1 inhib inactive, PABP FP inh -1, HIV Env fusion 10, MT1-MMP act inh 2, eIF4H FP inh 0 and MT1-MMP act inh RFP 1.
For COc1ccc(CCNC(=O)C2CCC(=O)N(CC3CCCCC3)C2)cc1 (configuration not stated) the results were Yeast UUG start -5, Rce1 inhib inactive, PABP FP inh -4, MT1-MMP act inh 2, eIF4H FP inh -3 and MT1-MMP act inh RFP 4.
`COc1ccc2oc(=O)c(C(=O)N3CCN(C(=O)c4ccccc4)CC3)cc2c1` gave Yeast UUG start 1, Rce1 inhib inactive, PABP FP inh -6, HIV Env fusion 9, MT1-MMP act inh -2, eIF4H FP inh -2 and MT1-MMP act inh RFP -1.
For CCc1cc2c(SCC(=O)N3CCCC3=O)ncnc2s1 the results were CSC inhib -12, Yeast UUG start -1, HIV Env fusion 7, MT1-MMP act inh 7 and MT1-MMP act inh RFP -6.
For O=C(CN1C(=O)c2cccnc2Oc2ccc(Cl)cc21)N1CCCC1 the results were CSC inhib -21, Yeast UUG start 0, Rce1 inhib inactive, HIV Env fusion 6, MT1-MMP act inh -4 and MT1-MMP act inh RFP 1.
Screening Cc1cc(C)nc(/N=C(/NC(=O)c2ccccc2)Nc2ccccc2)n1 returned CSC inhib -5, Yeast UUG start -15, Rce1 inhib inactive, PABP FP inh -8, HIV Env fusion -31, MT1-MMP act inh 2, eIF4H FP inh -6 and MT1-MMP act inh RFP 6.
COc1cnc(-c2ccccn2)nc1Sc1ccc(Cl)cc1 was read as CSC inhib -2, Yeast UUG start -29, Rce1 inhib inactive, PABP FP inh 3, HIV Env fusion inactive, MT1-MMP act inh 2, eIF4H FP inh 3 and MT1-MMP act inh RFP 2.
`CCN1CCN(CC(=O)Nc2c(OC)cccc2OC)CC1` gave CSC inhib -15, Yeast UUG start 4, Rce1 inhib inactive, PABP FP inh 0, HIV Env fusion -2, MT1-MMP act inh 1, eIF4H FP inh 23 and MT1-MMP act inh RFP 8.
`COCCNC(=O)C(=O)NNS(=O)(=O)c1ccc2ccccc2c1` gave CSC inhib -10, Rce1 inhib inactive, PABP FP inh 8, HIV Env fusion 20, MT1-MMP act inh -1, eIF4H FP inh -12 and MT1-MMP act inh RFP 4.
Cc1ccc(Cl)cc1NS(=O)(=O)Cc1ccccc1 was read as CSC inhib -10, Yeast UUG start -12, Rce1 inhib inactive, PABP FP inh 10, HIV Env fusion 14, MT1-MMP act inh 1, eIF4H FP inh 3 and MT1-MMP act inh RFP -1.
`COc1ccc(NC(=O)CN(C)C(=O)CCNS(=O)(=O)c2ccc(Br)cc2)cc1` gave Yeast UUG start -7, Rce1 inhib inactive, PABP FP inh -11, MT1-MMP act inh 1, eIF4H FP inh 0 and MT1-MMP act inh RFP 2.
CC(/C=N/NC(=O)c1cc(C(C)C)[nH]n1)=C\c1ccccc1 was read as CSC inhib 14, Rce1 inhib inactive, PABP FP inh -6, HIV Env fusion -4, MT1-MMP act inh -1, eIF4H FP inh -3 and MT1-MMP act inh RFP -2.
For Brc1cccc(-c2nc(-c3ccncc3)no2)c1 the results were CSC inhib 2, Yeast UUG start -9, Rce1 inhib inactive, PABP FP inh 16, MT1-MMP act inh -3, eIF4H FP inh 2 and MT1-MMP act inh RFP -3.
Screening O=C(O)CCC(=O)N1N=C(c2ccccc2)CC1c1cccs1 (configuration not stated) returned CSC inhib -6, Yeast UUG start -23, Rce1 inhib inactive, PABP FP inh -3, HIV Env fusion -6, MT1-MMP act inh 0, eIF4H FP inh 2 and MT1-MMP act inh RFP 1.
`COc1ccc(S(=O)(=O)N(CC(=O)N2CCN(c3ccccc3OC)CC2)c2ccccc2)cc1` gave Yeast UUG start -13, PABP FP inh -12, MT1-MMP act inh -2, eIF4H FP inh -5 and MT1-MMP act inh RFP -20.
For COc1cc(OC)c(C(=O)Nc2cccnc2)cc1OC the results were CSC inhib -10, Yeast UUG start -23, Rce1 inhib inactive, PABP FP inh 7, HIV Env fusion 2, MT1-MMP act inh 5, eIF4H FP inh -5 and MT1-MMP act inh RFP 2.
COc1cc(OC)cc(C(=O)NCC(=O)Nc2ccc(C)c(Cl)c2)c1 was read as CSC inhib -3, Yeast UUG start -6, Rce1 inhib inactive, PABP FP inh -4, HIV Env fusion 31, MT1-MMP act inh -1, eIF4H FP inh -16 and MT1-MMP act inh RFP 0.
For COc1ccc(/C(N)=N/OC(=O)c2ccc(C)c([N+](=O)[O-])c2)cc1 the results were CSC inhib 7, Yeast UUG start -11, Rce1 inhib inactive, PABP FP inh 4, MT1-MMP act inh 10, eIF4H FP inh -5 and MT1-MMP act inh RFP -2.
For CCCn1c(=N)n(CC(O)COc2ccc(C)cc2)c2ccccc21 (configuration not stated) the results were CSC inhib 9, Rce1 inhib inactive, PABP FP inh -10, HIV Env fusion -72, MT1-MMP act inh 3, eIF4H FP inh 3 and MT1-MMP act inh RFP 0.
